# Source: PubChem
# Mtb hypoxia inh = inhibitors of hypoxia-regulated fluorescent reporter in Mycobacterium tuberculosis; M. tuberculosis hypoxia-regulated fluorescent reporter, fluorescence; fluorescence inhibition, % (concentration not given with the values); 300,000 compounds, 0.1% hits;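 active = 35 to 45% if threefold the growth effect, above 45% if 1.5-fold the growth effect; inactive = the rest, general growth blockers included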;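 note: wells of about 50 µL received 100 nL stock; 0% = vehicle wells and 100% = reference inhibitor wells; whole bacteria with a GFP reporter of the hypoxia response; strong numbers were not always called active; many hits fall short of the cut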
# RN4220 kill = kills Staphylococcus aureus RN4220. inhibition, % (test concentration not listed). S. aureus RN4220 growth, OD600, 16 h. 330,000 compounds, 0.33% hits. AID 1259311;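 active = z-score of -3 or lower and OD600 up to 0.18 on both plates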;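 note: plate controls were untreated cells for no effect and reference antibiotic for full effect; stock transfer was 100 nL into about 80 µL; one replicate is shown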
# PrP UTR inh = inhibition of PrP 5' UTR reporter expression; cell-based PrP 5' UTR mRNA reporter, plate reader; inhibition, % (no concentration beside the values); 340,000 compounds, 0.35% hits;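 active = every replicate at 50% or more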;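 note: 0 = median of the neutral control wells; tested in H4 reporter cells; numbers are from one replicate; inactives centre near -14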
# BJeLR viability = kills HRASV12-expressing BJeLR cells; BJeLR (HRASV12) viability, CellTiter-Glo ATP luminescence, 48 h; reference of the scale not given here; inhibition, % (test concentration not listed); 300,000 compounds, 0.17% hits;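 active = replicate mean above 50%; inconclusive = above 50% but judged a plate artefact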;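 note: 50 nL library stock added to about 25 µL; numbers are from one replicate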
# Bead autofluor = flagged as autofluorescent in microsphere protease counterscreen; compound autofluorescence counterscreen, microsphere flow cytometry; hits give high values; fluorescence intensity (no concentration beside the values); 360,000 compounds, 3.1% hits; AID 624483;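 active = at least 3 SD above the mean of all compounds, about 16000 in these data; inconclusive = too few beads counted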;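 note: 100 nL of 1 mM stock went into each well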
# Sa ugtP lethal = growth inhibition of S. aureus ugtP deletion strain. S. aureus RN4220 ugtP deletion, OD600 growth, 16 h; some inactives read as strong as hits. growth inhibition, % (concentration not given with the values). 330,000 compounds, 0.54% hits. AID 1259309;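 active = z-score under -3 and OD600 up to 0.15 on both plates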;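 note: plate controls were untreated wells for no effect and antibiotic for full effect; wells of about 80 µL received 100 nL stock; the first replicate is given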
# Mtb hypoxia inh growth = also measured in Mtb hypoxia inh; calls as there; growth inhibition, %; measured here: M. tuberculosis growth (absorbance);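 0% = vehicle and 100% = reference antibiotic; read after six days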
# * hit, by the source's call; ? = inconclusive; / = no result given.
SMILES,Mtb hypoxia inh,Mtb hypoxia inh growth,RN4220 kill,PrP UTR inh,BJeLR viability,Bead autofluor,Sa ugtP lethal
CC/C=C/C(=O)N1CC2(CC(c3cccc(NC(=O)CC)c3)=NO2)C[C@H]1C(N)=O (some centres not stated),/,/,/,-2,3,2687,/
COc1ccc(NC(=O)c2cc3sccc3n2Cc2ccc(F)cc2)cc1OC,-1,-4,-0.5,-50,3,4348,3
CCOc1ccc(C(=O)N2CCCC2)cc1OC,8,11,2.7,-18,1,21510*,0
CCC1=C(OC(=O)N(CC)CC)N2C(=O)OC(=NCCc3c[nH]c4ccccc34)[C@]2(Cc2ccccc2)[C@H]2C1=CC[C@H]1C(=O)N(c3ccccc3)C(=O)[C@H]12,/,/,/,2,-6,2831,/
CN(CC(=O)Nc1ccc2c(c1)OCCO2)S(=O)(=O)c1ccc(F)cc1,-5,9,-1.5,-29,-16,5316,5
CC(C)(C#CCN1CCCCC1)OCCOC(c1ccccc1)c1ccccc1,3,-1,1.9,-11,6,2133,25
CCOc1cc(C2CC(=O)N3CN(C4CCCCC4)CSC3=C2C#N)ccc1O (configuration not stated),/,/,/,-16,-8,4339,/
COc1ccc(CNC(=O)CCCNS(=O)(=O)c2cccc3nonc23)cc1,3,13,8.6,-16,-8,4151,3
CCOC(=O)Cc1csc(NS(=O)(=O)c2ccc3c4c(cccc24)C(=O)N3CC)n1,-3,5,24,-5,-5,?,-12
CC1(C)CC(NC(=O)c2c(N)no[n+]2[O-])CC(C)(C)N1,1,9,8.1,-13,13,3119,4
O=C(N1CCN(c2ccccc2F)CC1)C1(S(=O)(=O)c2ccc(Cl)cc2)CC1,-4,3,7.4,-6,-12,5608,13
Nc1nnnn1/N=C/C(Br)=C/c1ccccc1,/,/,/,-33,32,4098,/
Cc1noc(C)c1C(=O)OCC(=O)NC1CC1,/,/,-0.4,-19,2,2535,2
CCS(=O)(=O)N1CCC(c2nc(-c3ccc(C)cc3)no2)CC1,6,5,1.2,/,6,10080,2
CCC1=[N+](C)c2cccc3cccc(c23)N1C,3,-2,7.6,-11,2,4790,16
O=C(c1ccc2oc(CCCc3ccccc3)nc2c1)N1CCCC(CCCO)C1 (configuration not stated),14,-3,4.7,-11,-2,6054,7
Cc1ccc(-c2cc(C(=O)NCCN3CCOCC3)no2)cc1,16,11,5.9,-20,5,10050,1
Cc1cc(C(F)F)n2ncc(C(=O)NCCc3ccccc3Cl)c2n1,/,/,4.5,2,-1,3282,4
COc1ccc(OC)c(S(=O)(=O)Nc2cc3c4c(c2)CC(=O)N4CCC3)c1,2,3,-0.5,5,5,/,-1
O=C(Cc1ccccc1)NCC(=O)N1CCN(c2ccccc2F)CC1,1,-4,1.8,-2,1,5341,7

# Pulled by compound from the list above:
SMILES,Mtb hypoxia inh,Mtb hypoxia inh growth,RN4220 kill,PrP UTR inh,BJeLR viability,Bead autofluor,Sa ugtP lethal
O=C(c1ccc2oc(CCCc3ccccc3)nc2c1)N1CCCC(CCCO)C1 (configuration not stated),14,-3,4.7,-11,-2,6054,7
CCC1=[N+](C)c2cccc3cccc(c23)N1C,3,-2,7.6,-11,2,4790,16

# Next part:
SMILES,Mtb hypoxia inh,Mtb hypoxia inh growth,RN4220 kill,PrP UTR inh,BJeLR viability,Bead autofluor,Sa ugtP lethal
COCCn1c(=O)[nH]c2cc(C(=O)N3CCN(c4ccc(OC)cc4)CC3)ccc2c1=O,3,-3,2.8,-1,-4,4441,15
Cn1c(=O)c2c(ncn2CC(=O)OCC(=O)NNC(=O)c2ccc(Cl)cc2)n(C)c1=O,6,8,3.5,-5,/,3666,6
CCOc1ccc(S(=O)(=O)N(C)c2ccc(OCC(=O)N3c4ccc(C)cc4C4CN(C)CCC43)cc2)cc1 (configuration not stated),9,8,-4.1,-4,-10,5014,2
O=C1CC(N2CCN(c3ccc(S(=O)(=O)N4CCOCC4)cc3)CC2)C(=O)N1Cc1ccccc1 (configuration not stated),/,/,-0.6,-19,-1,4565,-2
Cc1ccc(NC(=S)Nc2ccccn2)cc1C,15,22,-3.7,-71,5,/,-5
O=c1cc(N2CCc3ccccc3C2)[nH]c(=O)n1-c1ccc(Cl)cc1,-4,3,-2.3,-16,2,10486,-1
COc1ccc(C)cc1NC(=O)C1CCN(S(=O)(=O)c2c(C)noc2C)CC1,3,0,3.1,-18,-7,4942,0
COC(=O)c1c(C)[nH]c(C(=O)C(C)OC(=O)c2cnc(C)cn2)c1C (configuration not stated),1,6,6.2,-12,/,3762,6
CN(C)CCCOc1nn(Cc2ccccc2)c2ccccc12,/,/,/,-25,0,6130,/
CN(CC(=O)Nc1ccccc1Br)C(=O)c1cc(Cl)nc2ccccc12,5,4,-1.3,-9,/,?,1

# Laid out differently: entries from further up
SMILES | Mtb hypoxia inh | Mtb hypoxia inh growth | RN4220 kill | PrP UTR inh | BJeLR viability | Bead autofluor | Sa ugtP lethal
Nc1nnnn1/N=C/C(Br)=C/c1ccccc1 | / | / | / | -33 | 32 | 4098 | /
Cc1noc(C)c1C(=O)OCC(=O)NC1CC1 | / | / | -0.4 | -19 | 2 | 2535 | 2
CCS(=O)(=O)N1CCC(c2nc(-c3ccc(C)cc3)no2)CC1 | 6 | 5 | 1.2 | / | 6 | 10080 | 2
CCC1=[N+](C)c2cccc3cccc(c23)N1C | 3 | -2 | 7.6 | -11 | 2 | 4790 | 16
O=C(c1ccc2oc(CCCc3ccccc3)nc2c1)N1CCCC(CCCO)C1 (configuration not stated) | 14 | -3 | 4.7 | -11 | -2 | 6054 | 7
Cc1ccc(-c2cc(C(=O)NCCN3CCOCC3)no2)cc1 | 16 | 11 | 5.9 | -20 | 5 | 10050 | 1
Cc1cc(C(F)F)n2ncc(C(=O)NCCc3ccccc3Cl)c2n1 | / | / | 4.5 | 2 | -1 | 3282 | 4
COc1ccc(OC)c(S(=O)(=O)Nc2cc3c4c(c2)CC(=O)N4CCC3)c1 | 2 | 3 | -0.5 | 5 | 5 | / | -1
O=C(Cc1ccccc1)NCC(=O)N1CCN(c2ccccc2F)CC1 | 1 | -4 | 1.8 | -2 | 1 | 5341 | 7
COCCn1c(=O)[nH]c2cc(C(=O)N3CCN(c4ccc(OC)cc4)CC3)ccc2c1=O | 3 | -3 | 2.8 | -1 | -4 | 4441 | 15
Cn1c(=O)c2c(ncn2CC(=O)OCC(=O)NNC(=O)c2ccc(Cl)cc2)n(C)c1=O | 6 | 8 | 3.5 | -5 | / | 3666 | 6
CCOc1ccc(S(=O)(=O)N(C)c2ccc(OCC(=O)N3c4ccc(C)cc4C4CN(C)CCC43)cc2)cc1 (configuration not stated) | 9 | 8 | -4.1 | -4 | -10 | 5014 | 2
O=C1CC(N2CCN(c3ccc(S(=O)(=O)N4CCOCC4)cc3)CC2)C(=O)N1Cc1ccccc1 (configuration not stated) | / | / | -0.6 | -19 | -1 | 4565 | -2
Cc1ccc(NC(=S)Nc2ccccn2)cc1C | 15 | 22 | -3.7 | -71 | 5 | / | -5
O=c1cc(N2CCc3ccccc3C2)[nH]c(=O)n1-c1ccc(Cl)cc1 | -4 | 3 | -2.3 | -16 | 2 | 10486 | -1
COc1ccc(C)cc1NC(=O)C1CCN(S(=O)(=O)c2c(C)noc2C)CC1 | 3 | 0 | 3.1 | -18 | -7 | 4942 | 0

# (cont.)
SMILES,Mtb hypoxia inh,Mtb hypoxia inh growth,RN4220 kill,PrP UTR inh,BJeLR viability,Bead autofluor,Sa ugtP lethal
COC(=O)C1=C(C)N(CCCCCC(=O)O)C(=O)NC1c1ccccc1 (configuration not stated),3,10,6.4,-25,16,3217,6
O=S(=O)(c1ccc(F)cc1)N1CCN(Cc2cc3c(cc2Br)OCCO3)CC1,4,6,0.1,0,/,4158,-1
CC(C)Cn1c(N)c(C(=O)CSc2nnnn2-c2ccc(Cl)cc2)c(=O)n(C)c1=O,-2,-3,1.1,-17,/,4484,5
CCC(C)(C)NC(=O)C(c1ccccc1Cl)N(C(=O)CCC(=O)Nc1cc(C)on1)C1CC1 (configuration not stated),3,0,-1.6,-12,1,2854,-4
CCc1ccccc1N1CSC2=C(C#N)C(c3cc(OC)c(OC)cc3OC)CC(=O)N2C1 (configuration not stated),-8,-8,-1.8,-31,5,5398,-11
NC(=NCCc1c[nH]c2ccccc12)NS(=O)(=O)c1cc(F)ccc1F,-4,6,3.1,-19,-7,1985,0
Cc1ccc(OCC(=O)N(Cc2ccc(C)o2)C2CCS(=O)(=O)C2)cc1 (configuration not stated),9,-1,2.9,-27,-1,5539,4
